Source: PubChem BioAssay
STK33 kinase inh: human STK33 kinase inhibition; purified STK33, MBP phosphorylation, ADP-Glo luminescence; inhibition, % at 10 µM; hit rate 0.073% among 320,000; AID 2661;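 active means inhibition at or above 25%, using the most active replicate where run in duplicate; inactive means inhibition below 25%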
Target sequence (Q9BYT3 whole entry, looked up): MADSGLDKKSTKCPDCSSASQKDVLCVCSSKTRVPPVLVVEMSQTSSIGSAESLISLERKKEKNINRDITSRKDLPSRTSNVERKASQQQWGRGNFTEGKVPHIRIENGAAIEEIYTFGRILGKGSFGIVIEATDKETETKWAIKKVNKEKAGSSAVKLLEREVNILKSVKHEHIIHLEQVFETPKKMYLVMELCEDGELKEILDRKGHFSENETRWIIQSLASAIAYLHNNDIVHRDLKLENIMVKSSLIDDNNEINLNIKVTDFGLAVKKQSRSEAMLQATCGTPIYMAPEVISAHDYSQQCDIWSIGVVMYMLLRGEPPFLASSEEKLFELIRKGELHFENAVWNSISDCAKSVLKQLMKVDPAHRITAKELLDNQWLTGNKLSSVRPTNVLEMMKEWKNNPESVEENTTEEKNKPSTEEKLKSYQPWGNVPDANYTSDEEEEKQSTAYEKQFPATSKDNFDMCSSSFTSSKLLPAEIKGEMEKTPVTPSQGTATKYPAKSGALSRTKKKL
* marks the source's active call; other numbers are inactive results. These rows are one share of the data; most or all hits stand in other tables.

SMILES	STK33 kinase inh
CC12CCC(C(=O)N(NC(=O)c3cc(Cl)ccc3O)C1=O)C2(C)C (configuration not stated)	-1.2
Cc1ccc(NC(=O)CCn2cnc3cc(C)c(C)cc32)cc1	-0.4
CCOc1ccc(S(=O)(=O)NCC2CCCO2)c2cccnc12 (configuration not stated)	0.0
CCOC(=O)CSc1nc2c(sc3ccccc32)c(=O)n1CCCN1CCOCC1	0.6
Cc1nnc(SCC(=O)Nc2ncc3c(n2)CCCC3=O)s1	-4.0
O=C(NCc1cccc(Cl)c1)c1ccc(CS(=O)Cc2ccccc2Cl)o1 (configuration not stated)	-0.8
CCN1C/C(=C/c2cccs2)c2nc3ccccc3c(C(=O)O)c2C1	-0.2
CC(=O)Nc1ccc(S(=O)(=O)Nc2nc(C)nc3sc4c(c23)CCC4)cc1	0.9
O=C(O)CC(NS(=O)(=O)c1cccc2nsnc12)c1ccc(F)cc1 (configuration not stated)	-0.2
CCCN1CCC(NC(=O)Cc2ccc(C)cc2)CC1	0.4
CC(C)(C)C(=O)C(Cc1ccccc1)n1cncn1 (configuration not stated)	-0.5
S=C(NCC1CC1)N/N=C/c1ccccc1Cl	-0.9
CC1(c2ccccc2)NC(=O)N(CC(=O)N2CCN(S(=O)(=O)c3ccccc3[N+](=O)[O-])CC2)C1=O (configuration not stated)	-3.1
CCOc1cc(C#N)c(NC(=O)CSc2nnnn2-c2ccc(OC)cc2)cc1OCC	1.2
C[C@@H](C(=O)NCCc1c[nH]c2ccccc12)[C@@H]1C[C@@]1(C)[C@@H](NC(=O)OCc1ccccc1)c1ccccc1	2.1
Cc1cc(OCC(=O)c2cccc(C(F)(F)F)c2)n2cnnc2n1	-1.8
CCOc1ccccc1N(CC(=O)O)S(=O)(=O)c1ccccc1	-0.2
O=C1NN(c2ccccc2)C(=O)/C1=C\c1cccn1-c1ccc(Cl)c([N+](=O)[O-])c1	0.9
CC(Cc1cnccn1)NC(=O)c1cc(COc2ccc(F)cc2F)on1 (configuration not stated)	-0.3
CC(C)CCN1CC(C(=O)NCc2ccc(F)cc2)CC1=O (configuration not stated)	-3.7
O=C(C1=C[C@@H](C2CC2)C[C@@H](OCc2ccc(CO)cc2)O1)N1CCN(Cc2ccccc2)CC1	0.5
Cc1ccc(CN(c2ccc(C(=O)NCc3ccccn3)cc2)S(C)(=O)=O)cc1	-0.4
COc1ccc(C2CC(c3ccc(F)cc3)=NN2c2ccccc2)cc1OC (configuration not stated)	-2.1
CC(=O)Nc1ccc(NC(=O)CSc2ccc(-c3sc(C)nc3C)nn2)cc1	-1.2
COc1ccc(C)cc1Nc1n[n+](C)c(-c2c3ccccc3cc3ccccc23)s1	1.9

The results go on:
SMILES	STK33 kinase inh
Cc1ccc2oc(C(=O)N(C)CCC(O)c3ccccc3)c(C)c2c1 (configuration not stated)	-0.3
COc1ccc(NC(=O)CSc2ccc(-c3sc(C)nc3C)nn2)cc1OC	-1.1
COc1cccc(NC(=O)COc2ccc(S(=O)(=O)NC(C)C)cc2)c1	-0.5
O=c1c(Cc2c(F)cccc2Cl)c(O)ccn1C1CC1	-0.2
CCOC(=O)C1=C(CSc2nc(C)cc(C)c2C#N)OC(N)=C(C#N)C1c1ccccc1 (configuration not stated)	-0.7
Cc1cc(C)c(OCC(=O)Nc2ccc(N3CCOCC3)cc2)c(Br)c1	-0.5
CCN(CC)S(=O)(=O)c1ccc(C)c(NC(=S)NNC(=O)C2CC2)c1	-1.1
CC(C)CCNC(=O)c1cc2c(=O)n3ccccc3nc2s1	-0.8
O=C(c1ccccc1)c1cc(F)c(N2CCOCC2)cc1Cl	-1.5
CCC(C)NS(=O)(=O)c1ccc(OCC(=O)Nc2ccc(F)cc2F)cc1 (configuration not stated)	-1.6
Nc1nonc1-c1noc(CCCOc2ccc(Cl)cc2Cl)n1	0.5
Cc1ccc(-c2[nH]nc3c2C(c2ccsc2)C(C#N)=C(N)O3)cc1 (configuration not stated)	0.3
O=S(=O)(Nc1ccc2c(c1)OCCO2)c1cccc2nsnc12	-1.2
CCC(=O)Nc1ccc2nc(C3CC3)n(Cc3ccc(C(C)(C)C)cc3)c(=O)c2c1	-1.3
Brc1ccc(-c2nnc(-c3cccnc3)o2)cc1	-0.7
Cc1onc(-c2c(F)cccc2Cl)c1C(=O)NNC(=O)C1CCN(Cc2ccccc2)CC1	-0.8
Clc1ccc(N2CCN(c3nc4nonc4nc3N3CCSCC3)CC2)nc1	-0.3
Cc1csc(Sc2ccc(C(=O)OCC(=O)Nc3ccc(OC(F)(F)F)cc3)cc2[N+](=O)[O-])n1	-0.4
CCOC(=O)N1CCN(C(=O)CSC2=NS(=O)(=O)c3ccccc3N2)CC1	-0.2
Cc1cc(C)n(-c2ccc(C(=O)OCC(=O)Nc3ccc([N+](=O)[O-])cc3)cc2)n1	-0.6
CC(C(=O)Nc1ccc(O)cc1)c1cccc(C(=O)c2ccccc2)c1 (configuration not stated)	-0.1
CCN(CC)c1nc2ccccc2[nH]c1=O	-0.9
CCC(C)[C@@H]1NC(=O)N(CCCN2CCCC2=O)C1=O (some centres not stated)	-1.7
Cc1cc2c(NC(=O)Nc3ccc(C(C)(C)C)cc3)cccc2nn1	0.0
C=CCNC(=O)c1ccccc1NC(=O)C1CC(=O)N(C(C)C)C1 (configuration not stated)	-3.0

Taken from the listing (7 entries):
SMILES	STK33 kinase inh
CC12CCC(C(=O)N(NC(=O)c3cc(Cl)ccc3O)C1=O)C2(C)C (configuration not stated)	-1.2
Cc1ccc(NC(=O)CCn2cnc3cc(C)c(C)cc32)cc1	-0.4
CCOc1ccc(S(=O)(=O)NCC2CCCO2)c2cccnc12 (configuration not stated)	0.0
CCOC(=O)CSc1nc2c(sc3ccccc32)c(=O)n1CCCN1CCOCC1	0.6
Cc1nnc(SCC(=O)Nc2ncc3c(n2)CCCC3=O)s1	-4.0
O=C(NCc1cccc(Cl)c1)c1ccc(CS(=O)Cc2ccccc2Cl)o1 (configuration not stated)	-0.8
CCN1C/C(=C/c2cccs2)c2nc3ccccc3c(C(=O)O)c2C1	-0.2

More records
SMILES	STK33 kinase inh
CC(=O)Nc1ccc(S(=O)(=O)NCC2CCC(C(=O)NC(C)c3ccccc3)CC2)cc1 (configuration not stated)	-0.5
CCOc1ccc2c(c1)S/C(=C\c1cccs1)C(=O)N2	-3.7
Cc1c(NC(=O)c2ccco2)cccc1-c1nc2cccnc2s1	0.5
O=C1CCCCCN1Cc1nnc(SCc2nc3ccccc3s2)n1-c1ccccn1	-3.8
O=S(=O)(c1cnc(Cl)c(Br)c1)N1CCN(c2ncccn2)CC1	-0.2
COCCCn1c(=O)c2sccc2n(Cc2ccccc2C)c1=O	-1.1
S=c1[nH]nc(-c2ccc3ccccc3n2)n1-c1ccc2c(c1)OCCO2	0.9
CCc1cccc(CC)c1NC(=O)c1ccccc1	-1.2
CCCCSc1nc(N)c(NC(=O)c2ccco2)c(=O)[nH]1	-1.1
COc1ccc(NC(=O)COC(=O)CCCN2C(=O)c3ccccc3C2=O)cc1Cl	0.4
CC1CCCCC1NC(=O)Cn1c(CN2CCCCC2)nc2ccccc2c1=O (configuration not stated)	-1.2
COC(C(=O)N/N=C(\C)CC(=O)Nc1ccc(Cl)cc1C)c1ccccc1 (configuration not stated)	-4.9
Cc1cccc(NC(=O)CCNS(=O)(=O)c2cccc3nsnc23)c1C	-1.2
COc1ccc(Nc2cc(C)nc3ccccc23)cc1	-0.6
O=C(CNC(=O)c1ccc(Br)o1)NCc1ccc(Cl)cc1	-0.9
FC(F)(F)c1ccccc1C1=CC(c2ccccc2)n2ncnc2N1 (configuration not stated)	2.4
Clc1ccc(-c2nc(-c3ccccn3)no2)cc1Cl	-0.8
CC(=O)NC(Cc1ccccc1)C(=O)NC1CCN(C(=O)c2cnccn2)CC1 (configuration not stated)	-2.5
O=c1[nH]c(/C(Cl)=C/c2cccc(F)c2)nc2cc(C(F)(F)F)ccc12	-0.4
O=S1(=O)NC(C2CC2c2ccccc2)CCO1 (configuration not stated)	-0.2
COCCCNC(=O)CSc1nc2ccc(N3CCOCC3)cc2c(=O)n1CCc1ccccc1	-1.1
CC(C(=O)Nc1ccccn1)N1C(=O)c2ccccc2S1(=O)=O (configuration not stated)	-1.5
CCOC(=O)Cc1cc(=O)n2[nH]c(C(C)(C)C)cc2n1	0.9
O=C(Nn1cnnc1)c1ccc(Cl)c(Cl)c1	-19
COc1ccccc1C1C2=C(N=c3s/c(=C/c4cccc(OCC(=O)O)c4)c(=O)n31)c1ccccc1CC2 (configuration not stated)	-0.8

Next records follow:
SMILES	STK33 kinase inh
CCO[C@H]1OC(C(=O)NCc2nc3ccccc3[nH]2)=C[C@@H](c2ccc3c(c2)OCO3)[C@@H]1CCCO	-0.3
CCn1c(=O)c(=O)[nH]c2cc(C(=O)NC3CCCC3)ccc21	0.6
CC1CCCN(C(=O)CCc2ccccc2)C1 (configuration not stated)	-0.1
Cc1c(C)c2ccc(OCC(=O)NC3CCN(Cc4ccccc4)CC3)c(C)c2oc1=O	-0.4
COc1cc(C2CC(=O)N3CN(Cc4ccccc4)CSC3=C2C#N)ccc1OCc1ccccc1 (configuration not stated)	-1.6
COC(=O)C(NNc1ccccc1C)(NC(=O)c1ccc(F)cc1)C(F)(F)F (configuration not stated)	-1.3
CN1C(=O)CC(N2CCN(c3ccccn3)CC2)C1=O (configuration not stated)	0.3
CCOC(=O)c1c(-c2cccs2)csc1NC(=O)COC(=O)c1c(C)noc1C	-1.6
Cc1cccc(CN2CCC(CNC(=O)Nc3ccc(F)c(Cl)c3)CC2)c1	-0.9
COc1cc(CC(=O)OCC(=O)NCC(C)C)cc(OC)c1OC	-1.7
Cc1ccc(NC2=NCC(=O)N2C2CCCC2)cc1C	2.1
O=[N+]([O-])c1ccc(S(=O)(=O)Nc2ncccn2)cc1	-0.6
CSc1nc(N)n(-c2cc(C(F)(F)F)ccn2)n1	-0.2
CS(=O)(=O)N1CCC(C(=O)N2CCC(Cc3ccccc3)CC2)CC1	-0.1
Cc1nn2cc(-c3cccc(Cl)c3)cnc2c1Br	0.0
COC(=O)c1ccccc1NC(=O)c1ccc2c(c1)OCCO2	0.9
O=C(Oc1ccc2c3c(c(=O)oc2c1)CCC3)c1ccccc1[N+](=O)[O-]	-1.2
N#Cc1ccccc1OCC(=O)Nc1ccccc1C(=O)NC1CC1	-1.0
Cc1cc2nc(CCN(Cc3cccnc3)C(=S)Nc3ccccc3)[nH]c2cc1C	1.5
Cc1ccc(NC(=O)COc2ncnc3ccccc23)cc1S(=O)(=O)N1CCOCC1	1.0
O=C(/C=N/O)NCc1ccncc1	-0.3
Cc1ccc(NC(=O)CCc2c(C)nn(-c3ccc(N4CCCCC4)nn3)c2C)cc1C	-0.3
COc1ccc(C(=O)c2coc3ccc(O)c(CN(C)C)c23)cc1	-1.1
COc1cccc(C2Nc3ccccc3NC3=C2C(=O)CC(C)(C)C3)c1OC (configuration not stated)	-1.2
CC1Cc2ccccc2N1C(=S)Nc1cccc(S(=O)(=O)N(C)C)c1 (configuration not stated)	6.4

Other structures.
SMILES	STK33 kinase inh
Cc1ccc(N(CC(=O)NCC2CCCO2)S(=O)(=O)c2ccc(Cl)cc2)cc1C (configuration not stated)	0.7
COc1cccc(NC(=S)NCCCN2CCOCC2)c1	-1.3
Cn1cc(Cl)c(C(=O)Nc2cccc(Cl)c2Cl)n1	-0.7
CC(=O)c1ccc(NC(=O)CSC(=S)N2CCCC2)cc1	-1.7
CC(CNc1nc2ccc(Cl)cc2n2cnnc12)c1ccccc1 (configuration not stated)	-1.2
COc1ccc(S(=O)(=O)N(C)CC(=O)NCc2cccnc2)cc1C	-1.0
CCOc1ccccc1-c1nc(CN2CCC(C(=O)N3CCOCC3)CC2)c(C)o1	1.8
O=C(CN1C(=O)c2ccccc2S1(=O)=O)c1ccc(F)cc1	0.9
CCOc1ccc(-c2c(C#N)c(N)nc3c2c(=O)n(C)c(=O)n3C)cc1OC	1.3
CC(C)c1ccc(NC(=O)C(c2ccc3c(c2)OCO3)N2CCN(C(=O)c3ccco3)CC2)cc1 (configuration not stated)	-0.7
O=C(O)CS(=O)(=O)c1ccc(C(F)(F)F)cn1	-1.6
CCSC1=NC(=O)/C(=C2/C=Cc3ccccc3N2CC)S1	-1.2
Cc1cccc(N2C(=O)CC(N3CCN(c4ccccc4)CC3)C2=O)c1 (configuration not stated)	-0.7
COC(=O)c1cccc(CN2C(=O)SC(Nc3ccc(C)cc3)C2=O)c1 (configuration not stated)	-1.4
CCOc1ccc(-n2cnnn2)cc1S(=O)(=O)Nc1c(C)cccc1C	-1.1
Cc1onc(-c2ccccc2)c1C(=O)N/N=C/c1ccc(Br)cc1	-1.2
O=S(=O)(NCC(O)COCc1ccco1)c1cccs1 (configuration not stated)	1.6
O=C(COc1ccc(Cl)cc1)Nc1cnn(Cc2c(Cl)cccc2Cl)c1	-1.0
CC(=O)O[C@@H]1[C@@]2(C)O[C@H]2CC[C@]23O[C@H]2[C@H](OC3=O)C2=C(C)C(=O)O[C@@]21O	-0.7
CCn1c(SCc2nc3ccccc3[nH]2)nnc1-c1cnccn1	0.2
C1CCN(c2nc3nonc3nc2N2CCCC2)C1	-4.6
CC(C(=O)NCc1ccccc1)N(Cc1ccccc1Cl)C(=O)c1snc(C(N)=O)c1N (configuration not stated)	-0.5
Cc1cc(C)c2c(=O)[nH]n(C(C)C)c2n1	-1.3
Cc1cc(C)n(CCc2nc(-c3cccs3)cs2)n1	-0.7

Fetched by compound from the entries so far:
SMILES	STK33 kinase inh
Cn1cc(Cl)c(C(=O)Nc2cccc(Cl)c2Cl)n1	-0.7
O=C(CN1C(=O)c2ccccc2S1(=O)=O)c1ccc(F)cc1	0.9

Laid out differently: two of the compounds above.
smiles: O=C(COc1ccc(Cl)cc1)Nc1cnn(Cc2c(Cl)cccc2Cl)c1
  STK33 kinase inh: -1.0

smiles: Cc1cccc(N2C(=O)CC(N3CCN(c4ccccc4)CC3)C2=O)c1 (configuration not stated)
  STK33 kinase inh: -0.7

Part of the list above in order of heavy-atom count, smallest number first.
SMILES	STK33 kinase inh
Cn1cc(Cl)c(C(=O)Nc2cccc(Cl)c2Cl)n1	-0.7
CCSC1=NC(=O)/C(=C2/C=Cc3ccccc3N2CC)S1	-1.2
CCOc1ccc(-n2cnnn2)cc1S(=O)(=O)Nc1c(C)cccc1C	-1.1
